Screening results (PubChem)
LASV entry inh – Lassa virus entry inhibition; Lassa virus pseudotype entry inhibition, cell reporter; control for the full effect not named in the record; Potency, µM (doses to about 37.9 µM), for inactives: top-dose activity change, negative = inhibition, actives largely listed as inhibitors; AID 540256; 300,000 compounds, 1.2% hits; active means well fitted inhibition curve with a large enough effect; inconclusive means small, poorly fitted or top-dose-only effect, or effect the other way; inactive means flat fitted curve, though single readings scatter; tested in HEK293 cells; note: % is set by controls: 0 for no effect and ±100 for the full control effect; nearly all actives have a fitted effect of over 50% in size; luciferase read-out
2A StopGo – FMDV 2A StopGo reporter, luciferase signal. human cells with a luciferase reporter of 2A StopGo recoding; control for the full effect not named in the record. Potency, µM (series often up to 57.9 µM), inactives show top-dose signal change, negative = less light. 410,000 compounds, 1.2% hits. AID 1159524; active = well fitted falling curve with a large enough effect; inconclusive = small, poorly fitted or top-dose-only effect; inactive = no such curve, though single readings can be large or run the other way; tested in HEK293T cells; note: % is set by controls: 0 for no effect and ±100 for the full control effect; nearly all actives have a fitted effect of over 45% in size; luciferase light after 4 h
RE007 growth inh – less growth of the S. pombe RE007 Vpr strain | S. pombe RE007 Vpr strain, BacTiter-Glo ATP luminescence, 24 h; control for the full effect not named in the record | Potency, µM (top dose mostly 92.2 µM), without a hit: at the highest dose activity change, negative = less growth | 360,000 compounds, 0.21% hits; active = well fitted falling curve with a large enough effect; inconclusive = small, poorly fitted or top-dose-only effect; inactive = no such curve, though single readings can be large or run the other way;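 note: % is set by controls: 0 for no effect and ±100 for the full control effect; nearly all actives have a fitted effect of over 50% in size; the assay follows cell death caused by Vpr and the record does not say whether a fall means rescue or toxicity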
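Fission yeast strain RE007, carrying one chromosomally integrated HIV-1 vpr copy, was seeded at OD 0.01 in PMG+AL medium with 23 nL pinned compound. After 24 h at 30 °C and 99% humidity, viability was read by BacTiter-Glo luminescence.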
Cruzain noTriton – inhibitors of Trypanosoma cruzi cruzain without detergent | P25779 | purified cruzain, Z-FR-AMC fluorescence, no detergent | Potency, µM, for the others: max response, negative = inhibition, most hits filed as inhibitors | 200,000 compounds, 2.3% hits | AID 1476; active = well fitted curve in the direction sought with a large enough effect; inconclusive = small, poorly fitted or top-dose-only effect, or another doubt; inactive = no such curve, though single readings can be large; an effect the other way counts as inactive or inconclusive;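 note: plate controls were enzyme without inhibitor for no effect and buffer without enzyme for full effect; nearly all actives have a fitted effect of over 40% in size; top concentration of the series not given in the record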
Target sequence (P25779 123-467 limits assumed): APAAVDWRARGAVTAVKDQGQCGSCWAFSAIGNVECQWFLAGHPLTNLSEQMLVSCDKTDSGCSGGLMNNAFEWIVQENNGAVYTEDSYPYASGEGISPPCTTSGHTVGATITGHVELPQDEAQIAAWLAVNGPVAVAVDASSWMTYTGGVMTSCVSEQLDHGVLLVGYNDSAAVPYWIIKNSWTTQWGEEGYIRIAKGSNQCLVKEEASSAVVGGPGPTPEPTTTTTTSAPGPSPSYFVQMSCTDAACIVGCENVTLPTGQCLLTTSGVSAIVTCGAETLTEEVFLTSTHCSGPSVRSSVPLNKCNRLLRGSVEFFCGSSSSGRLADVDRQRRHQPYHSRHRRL
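Detergent-free condition (0.00005% Triton X-100) in acetate buffer pH 5.5 with DTT. 1.5 nM enzyme and compound were pre-mixed 15 min, then 2 uM Z-FR-AMC substrate added; reaction progress from fluorescence change between first and third reads (60 s).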
Cruzain Triton – cruzain (T. cruzi) inhibition with detergent | purified cruzain, Z-FR-AMC fluorescence, 0.01% Triton | 200,000 compounds, 0.43% hits | Potency, µM, for the others: max response, negative = inhibition, usual class: inhibitors | AID 1478; active = well fitted curve in the direction sought with a large enough effect; inconclusive = small, poorly fitted or top-dose-only effect, or another doubt; inactive = no such curve, though single readings can be large; an effect the other way counts as inactive or inconclusive;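 note: plate controls were neutral wells for no effect and buffer without enzyme for full effect; nearly all actives have a fitted effect of over 40% in size; top concentration of the series not given in the record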
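15 min RT preincubation of 1.5 nM cruzain with compound, then 2 uM Z-FR-AMC added; kinetic AMC fluorescence, 60 s delta. Triton X-100 0.01%, pH 5.5.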
Marburg entry inh – inhibitors of Marburg virus binding or cell entry; Marburg virus pseudotyped entry inhibition, cell reporter; control for the full effect not named in the record; about a third of the inactives were read at about 46 µM; Potency, µM (titrated, usually from 37.8 µM), for inactives: at the top dose activity change, negative = inhibition, hits mostly inhibitors; 300,000 compounds, 1.8% hits; AID 540276; active = well fitted inhibition curve with a large enough effect; inconclusive = small, poorly fitted or top-dose-only effect, or effect the other way; inactive = flat fitted curve, though single readings scatter; tested in HEK293 cells; about a fifth of its hits are not listed in these tables; note: % is set by controls: 0 for no effect and ±100 for the full control effect; luciferase read-out
NS1 inh – inhibitors of influenza NS1 protein function | 270,000 compounds, 0.4% hits | Potency, µM (titrated, usually from 46.1 µM), for inactives: top-dose activity, positive = more growth | S. cerevisiae slowed by influenza A NS1, growth recovery by OD600; note: actives are rising curves; nearly all actives have a fitted effect of over 50% in size
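S. cerevisiae expressing influenza A NS1, grown in glucose, washed, then diluted 1:100 into pH 6.0 -URA galactose medium with 23 nl compound. Growth recovery read as OD600; NS1-free strain serves as control.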
SARS PLP yeast – blocks SARS-CoV papain-like protease in a yeast assay | S. cerevisiae expressing SARS-CoV PLpro, growth rescue; control for the full effect not named in the record | Potency, µM (top dose mostly 32.9 µM), without a hit: top-dose activity, positive = growth rescue | 330,000 compounds, 0.19% hits; note: 0% is about no effect; nearly all actives have a fitted effect of over 55% in size; growth read by luminescence after 48 h
Numbers without * were called inactive; ? = inconclusive; / = not tested or not shown; & = joins results of further samples; [ ] = another dose, or the depositor's remark. Unless noted, calls come from the whole dose curve; as a rule, active means well fitted rising curve with a large enough effect; inconclusive means small, poorly fitted or top-dose-only effect; inactive means no such curve, though single readings can be large or run the other way. Potency is the fitted concentration of half-maximal effect.

SMILES | LASV entry inh | 2A StopGo | RE007 growth inh | Cruzain noTriton | Cruzain Triton | Marburg entry inh | NS1 inh | SARS PLP yeast
CCOc1ccc(C(=O)N2CCN(S(=O)(=O)c3ccc4c(c3)OCCO4)CC2)cc1OCC | -13% | -9% | -5% | / | / | 19% | / | -1%
CC(=O)Nc1ccc(N=Cc2ccc(OCc3ccccc3)cc2)cc1 | 1% | 16% | -7% | -7% | -2.4% | ? | -19% | -4%
COc1cccc(/C=N/NC(=O)CNC(=O)/C=C\c2ccccc2)c1O | / | 31%[activator] | -6% | / | / | / | -5% | 12%
COc1ccc(NCCC(O)c2ccc(Cl)cc2)cc1 (configuration not stated) | ? | 3% | -19% | / | / | -14% | -2% | -3%
CCC(C)(C)NC(=O)C(c1cccnc1)N(C(=O)c1csnn1)c1ccc(C)cc1 (configuration not stated) | / | -6% | -11% | / | / | / | 2% | 0%
O=C(COC(=O)c1ccc(Cl)nc1)Nc1ncc(Cl)cc1Cl | -13% | 8% | 1% | / | / | -8%[46.1 µM] | / | 0%
c1ccc(CCc2ccccc2-c2nc(-c3ccccn3)no2)cc1 | -26% | -6% | 1% | -6% | -2.4% | -20% | -67% | -14%
COc1ccc(-c2c(C)c3ccc(O)c(CN4CCCCC4C)c3oc2=O)cc1OC (configuration not stated) | 30%[46.1 µM] | -22% | / | 3% | -10% | / | / | /
CCCCCOc1ccc(CN2CCOCC2)cc1Cl | 5% | 4% | ? | -3% | 0.0% | ? | -87% | -7%
CC(C)Oc1ccc(CNC(=O)c2ccc3nc(SCc4ccc(F)cc4)n(C)c3c2)cc1 | / | 0% | / | ? | -1.6% | ? | / | /
Cc1cc(O)c(N=Nc2ccc(C(=O)O)cc2)cc1C | / | -54% | -13% | / | / | 22%[46.1 µM] | / | /
Cc1oc2ccc(O)c(CN3CCC(C)CC3)c2c1C(=O)Nc1ccccc1 | ? | -20% | / | -12% | -5.3% | ? | / | /
CCN(Cc1ccccc1)C(=O)c1oc2ccc(S(=O)(=O)N3CCOCC3)cc2c1C | / | -23% | -1% | / | / | / | 3% | 0%
Cc1ccccc1OCCC(=O)OCC(=O)Nc1ccc(N2CCOCC2)cc1 | -19% | -16% | -22% | / | / | 1% | -5% | 4%
Cc1ccc(NC(=O)c2cc(S(=O)(=O)N3CCC(C)CC3)cn2C)cc1Cl | 0%[46.1 µM] | -22% | / | -6% | -0.8% | / | / | /
O=C1CN(C(=O)c2ccccc2Br)C(c2ccc(F)cc2)c2cc(F)ccc2N1 (configuration not stated) | / | -6% | -1% | / | / | / | 1% | -2%
COC(=O)C(=Cc1ccc(-c2ccsc2C(=O)OC)o1)C(=O)OC | -2% | -10% | 0% | / | / | -31%[14.2 µM] | -1% | -1%
Cc1nn2c(NCc3cccnc3)c3c(nc2c1-c1ccccc1)CCC3 | ? | 17% | 5% | / | / | ? | 0% | -2%
CCCCCCCC1CC(/C(C)=N/NC(N)=O)OC1=O (configuration not stated) | 1% | 12% | 12% | ? | -1.5% | 11% | -3% | -18%
CCCc1nn2c(=O)cc(COC(=O)c3ccccc3NC(=O)c3cccs3)nc2s1 | -20%[46.1 µM] | -3% | / | -1% | 0.3% | / | / | /

Complete entries, looked up by structure. Values in the order: LASV entry inh	2A StopGo	RE007 growth inh	Cruzain noTriton	Cruzain Triton	Marburg entry inh	NS1 inh	SARS PLP yeast
Cc1nn2c(NCc3cccnc3)c3c(nc2c1-c1ccccc1)CCC3 in the list: ?	17%	5%	/	/	?	0%	-2%
CCCc1nn2c(=O)cc(COC(=O)c3ccccc3NC(=O)c3cccs3)nc2s1 in the list: -20%[46.1 µM]	-3%	/	-1%	0.3%	/	/	/
CCN(Cc1ccccc1)C(=O)c1oc2ccc(S(=O)(=O)N3CCOCC3)cc2c1C in the list: /	-23%	-1%	/	/	/	3%	0%

The listing continues:
SMILES | LASV entry inh | 2A StopGo | RE007 growth inh | Cruzain noTriton | Cruzain Triton | Marburg entry inh | NS1 inh | SARS PLP yeast
O=C(Nc1cccc(C(=O)N2CCN(Cc3ccccc3)CC2)c1)c1ccccc1 | -16% | ? | -9% | -9% | -1.4% | -10% | 7% | 14%
CC(C)(C)C(=O)Nc1ccc(Cc2ccncc2)cc1 | 20%[46.1 µM] | -15% | 6% | / | / | -5%[46.1 µM] | / | /
COc1ccc(NC(=O)/C(Cl)=C(/Cl)S(=O)(=O)Cc2ccccc2)cn1 | 22µM* | 20µM* | ? | 10% | 9.6% | ? | -200% | -54%
COc1ccc(S(=O)(=O)N2CCC(C(=O)N3CCCC3)CC2)cc1 | 2% | -17% | -3% | 6% | -3.5% | 2% | -7% | 1%
COc1ccc(/C=C2\C(=O)c3ccccc3OC2c2ccccc2)cc1 (configuration not stated) | / | -17% | 9% | / | / | / | 5% | -1%
Cc1cccc(C(=O)N/C(=C\c2ccc(C)o2)C(=O)O)c1 | / | -13% | -6% | / | / | / | 6% | -1%
O=C(CCNC(=O)c1ccc(Cl)cc1)Nc1ccc(S(=O)(=O)N2CCCCC2)cc1 | 0% | -7% | -1% | / | / | -21%[46.1 µM] | / | 4%
Cc1ccnc2nc(C(=O)Nc3nnc(CC(C)C)s3)nn12 | -6% | -9% | -7% | 10% | 4.7% | 3% | 9% | 14%
O=C(CSc1ccc2c(c1)OCCO2)NC(=O)Cc1ccccc1 | 2% | 27% | 18% | -13% | -3.2% | ? | -11% | -22%
Cc1c(NS(=O)(=O)c2cc(C(=O)NCCc3ccc(F)cc3)cc(Cl)c2Cl)c(=O)n(-c2ccccc2)n1C | 14% | 0% | -6% | / | / | ? | / | -3%

Entries listed so far that contain a COOH group, in the order listed:
SMILES | LASV entry inh | 2A StopGo | RE007 growth inh | Cruzain noTriton | Cruzain Triton | Marburg entry inh | NS1 inh | SARS PLP yeast
Cc1cc(O)c(N=Nc2ccc(C(=O)O)cc2)cc1C | / | -54% | -13% | / | / | 22%[46.1 µM] | / | /
Cc1cccc(C(=O)N/C(=C\c2ccc(C)o2)C(=O)O)c1 | / | -13% | -6% | / | / | / | 6% | -1%

Next records.
SMILES | LASV entry inh | 2A StopGo | RE007 growth inh | Cruzain noTriton | Cruzain Triton | Marburg entry inh | NS1 inh | SARS PLP yeast
COC(=O)c1ccc2c(=O)n(CCCCCC(=O)NCc3ccc4c(c3)OCO4)c(=O)[nH]c2c1 | -4% | -5% | -1% | -10% | -9.7% | 5% | 12% | 6%
Cc1ccc(C(=O)NCCSC2CCCCC2)cc1S(=O)(=O)Nc1ccccc1 | ? | / | 9% | 0% | -9.4% | ? | 13% | 5%
COC(CN1C(=O)C(=O)/C(=C(/O)c2ccccc2)C1c1ccccn1)OC (configuration not stated) | / | -7% | -9% | / | / | / | 7% | 1%
COc1ccc(OCC(=O)Nc2nc3ccc(NC(C)=O)cc3s2)cc1 | / | -22% | -15% | / | / | / | 7% | 1%
CN(C)c1oc(/C=C/c2ccc(F)cc2)nc1C#N | ? | 19% | / | ? | -9.2% | ? | / | /
C=C(C(=O)c1ccccc1)C(NC(C)(C)C)c1ccccc1 (configuration not stated) | ? | 10µM* | 4% | / | / | ? | / | /
c1ccc2c(c1)OCC(c1nn3cnnc3s1)O2 (configuration not stated) | -5% | 16% | -4%[3.69 µM] | 1% | 2.9% | 19% | 2% | -1%
CCc1c(C)sc(NC(=O)C2CCCCC2C(=O)O)c1C(N)=O (configuration not stated) | 5% | -3% | -8% | -12% | -7.5% | 2%&2%[46.1 µM] | -66% | 1%
COC(=O)CC(NC(=O)C1CC1)c1ccc2c(c1)OCO2 (configuration not stated) | 10%[46.1 µM] | -29% | -7% | / | / | -10%[46.1 µM] | / | 1%
Cn1c(O)c(C=NCCN2CCN(C(=O)Nc3ccccc3)CC2)c(=O)n(C)c1=O | -11% | -2% | -4% | / | / | 2%[46.1 µM] | 7% | 0%
O=S(=O)(NCCNS(=O)(=O)c1ccc(F)cc1)c1ccc(F)cc1 | 3% | 29% | 4% | 2% | 2.7% | -2% | -3% | 0%
Cc1ccc(C(O)(c2ccc(C)c(C)c2)C2CN3CCC2CC3)cc1C (configuration not stated) | / | ? | 17% | / | / | / | -2% | 1%
COc1ccc(NC(=O)/C(C#N)=C/c2ccc(OCCN3CCOCC3)c(OC)c2)c(OC)c1 | / | ? | 15% | / | / | / | 15% | -4%
O=C(Nc1ccc(S(=O)(=O)N2CCOCC2)cc1)c1ccc(Cl)s1 | -26% | / | -3% | -12% | -7.8% | 0% | -9% | -4%
O=C(COC(=O)c1cccnc1Nc1ccccc1F)NCCN1C(=O)CSC1=O | 6% | / | 11% | 5% | -0.9% | -5% | -2% | 2%
O=C(O)CCn1ncc2ccccc2c1=O | 10% | 4% | 1% | / | / | -1%[46.1 µM] | 5% | -1%
CCN1C(=O)/C(=C2/Sc3ccc(OC)cc3N2C)SC1=Nc1cccc(O)c1 | ? | / | 14% | 0% | 5.4% | ? | -14% | -5%
CCS(=O)(=O)Nc1ccc(C(=O)c2ccccc2)cc1 | 17% | -11% | 33% | 9% | -3.4% | ? | -2% | -2%
CCN(CCCNC(=O)CNC(=O)Cn1cnc2ccccc2c1=O)c1ccccc1 | 9% | 5% | 11% | 4% | 0.2% | 27% | -4% | -5%
Nc1ccc2nc(SCC(=O)c3ccccc3)sc2c1 | ? | 86%[activator] | -14% | / | / | 24% | -26% | -20%
CCC(=O)Nc1nc2ccc3nc(C)sc3c2s1 | / | 36%[activator] | -1% | 29% | 1.4% | / | -46% | -12%
CC(=O)Nc1ccc(NC(=O)Cc2ccc(S(=O)(=O)N3CCCCC3)cc2)cc1 | ? | -10% | 8% | / | / | 6% | / | 5%
Nc1cc(=O)[nH]c(SCC(=O)Nc2cccc(S(=O)(=O)N3CCCCCC3)c2)n1 | 1% | -5% | -9% | / | / | -8% | / | 6%
O=C(c1ccc(=O)oc1)N1CCC(C(O)(c2ccccc2)c2ccccc2)CC1 | -3% | -22% | 22% | / | / | ? | 9% | 1%
CCC1Sc2ccc(S(=O)(=O)CCC(=O)Nc3c(Cl)cc(OC)cc3OC)cc2NC1=O (configuration not stated) | / | -29% | -6% | / | / | / | 3% | ?
